# Screens as filed in PubChem BioAssay.
# StopGo reporter – FMDV 2A StopGo reporter, luciferase signal. human cells with a luciferase reporter of 2A StopGo recoding; control for the full effect not named in the record. Potency, µM (top dose mostly 57.9 µM), without a hit: at the top dose signal change, negative = less light. 410,000 compounds, 1.2% hits. AID 1159524; active = well fitted falling curve with a large enough effect; inconclusive = small, poorly fitted or top-dose-only effect; inactive = no such curve, though single readings can be large or run the other way; tested in HEK293T cells; note: % is set by controls: 0 for no effect and ±100 for the full control effect; nearly all actives have a fitted effect of over 45% in size; luciferase light after 4 h
# Marburg entry inh – Marburg virus entry inhibition | Marburg virus pseudotyped entry inhibition, cell reporter; control for the full effect not named in the record; about a third of the inactives were read at about 46 µM | Potency, µM (highest dose often 37.8 µM), inactives show at the highest dose activity change, negative = inhibition, hits mostly inhibitors | 300,000 compounds, 1.8% hits | AID 540276; active = well fitted inhibition curve with a large enough effect; inconclusive = small, poorly fitted or top-dose-only effect, or effect the other way; inactive = flat fitted curve, though single readings scatter; tested in HEK293 cells; about a fifth of its hits are not listed in these tables; note: % is set by controls: 0 for no effect and ±100 for the full control effect; luciferase read-out
# NS1 inh – inhibitors of influenza NS1 protein function; Potency, µM (doses to about 46.1 µM), inactives show at the top dose activity, positive = more growth; 270,000 compounds, 0.4% hits; S. cerevisiae slowed by influenza A NS1, growth recovery by OD600; note: actives are rising curves; nearly all actives have a fitted effect of over 50% in size
#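 Growth recovery, yeast-based: influenza A NS1 expressed in S. cerevisiae causes slow growth, and suppressors are detected by OD600. The parent strain without NS1 is used as positive control.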
# SARS PLpro yeast – inhibitors of SARS-CoV papain-like protease in yeast | S. cerevisiae expressing SARS-CoV PLpro, growth rescue; control for the full effect not named in the record | Potency, µM (highest dose often 32.9 µM), inactives show top-dose activity, positive = growth rescue | 330,000 compounds, 0.19% hits | AID 485353; note: 0% is about no effect; nearly all actives have a fitted effect of over 55% in size; growth read by luminescence after 48 h
# Cruzain inh noDet – blocks cruzain activity in detergent-free assay | P25779 | purified cruzain, Z-FR-AMC fluorescence, no detergent | Potency, µM, for inactives: max response, negative = inhibition, hits mostly inhibitors | 200,000 compounds, 2.3% hits; active = well fitted curve in the direction sought with a large enough effect; inconclusive = small, poorly fitted or top-dose-only effect, or another doubt; inactive = no such curve, though single readings can be large; an effect the other way counts as inactive or inconclusive;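 note: plate controls were enzyme without inhibitor for no effect and buffer without enzyme for full effect; nearly all actives have a fitted effect of over 40% in size; top concentration of the series not given in the record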
# Target sequence (P25779 123-467 limits assumed): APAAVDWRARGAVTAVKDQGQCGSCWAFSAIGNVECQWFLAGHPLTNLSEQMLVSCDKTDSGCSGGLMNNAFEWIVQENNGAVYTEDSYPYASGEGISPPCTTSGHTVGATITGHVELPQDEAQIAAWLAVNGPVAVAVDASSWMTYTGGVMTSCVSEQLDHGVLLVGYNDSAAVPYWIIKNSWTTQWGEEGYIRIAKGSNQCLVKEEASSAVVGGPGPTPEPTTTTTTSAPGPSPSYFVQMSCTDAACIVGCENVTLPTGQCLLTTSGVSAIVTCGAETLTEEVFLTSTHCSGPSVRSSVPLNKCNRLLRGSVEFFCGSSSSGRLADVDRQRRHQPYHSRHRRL
#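 Purified cruzain at 1.5 nM, pre-incubated 15 min with compound at room temperature in 100 mM sodium acetate pH 5.5, 5 mM DTT, 0.00005% Triton X-100. Reaction started with 2 uM Z-FR-AMC; AMC fluorescence increase over 60 s gives rate.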
# RE007 growth inh – less growth of the S. pombe RE007 Vpr strain; S. pombe RE007 Vpr strain, BacTiter-Glo ATP luminescence, 24 h; control for the full effect not named in the record; Potency, µM (doses to about 92.2 µM), for inactives: at the top dose activity change, negative = less growth; 360,000 compounds, 0.21% hits; active = well fitted falling curve with a large enough effect; inconclusive = small, poorly fitted or top-dose-only effect; inactive = no such curve, though single readings can be large or run the other way;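 note: % is set by controls: 0 for no effect and ±100 for the full control effect; nearly all actives have a fitted effect of over 50% in size; the assay follows cell death caused by Vpr and the record does not say whether a fall means rescue or toxicity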
#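 Fission yeast strain RE007, carrying one chromosomally integrated HIV-1 vpr copy, was seeded at OD 0.01 in PMG+AL medium with 23 nL pinned compound. After 24 h at 30 °C and 99% humidity, viability was read by BacTiter-Glo luminescence.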
# LASV entry inh – blocks Lassa virus binding to or entry into cells; Lassa virus pseudotype entry inhibition, cell reporter; control for the full effect not named in the record; Potency, µM (doses to about 37.9 µM), for inactives: top-dose activity change, negative = inhibition, usual class: inhibitors; 300,000 compounds, 1.2% hits; AID 540256; active means well fitted inhibition curve with a large enough effect; inconclusive means small, poorly fitted or top-dose-only effect, or effect the other way; inactive means flat fitted curve, though single readings scatter; tested in HEK293 cells; note: % is set by controls: 0 for no effect and ±100 for the full control effect; nearly all actives have a fitted effect of over 50% in size; luciferase read-out
# Cruzain inh Det – inhibitors of Trypanosoma cruzi cruzain with detergent; Potency, µM, for inactives: max response, negative = inhibition, actives largely listed as inhibitors; purified cruzain, Z-FR-AMC fluorescence, 0.01% Triton; P25779; 200,000 compounds, 0.43% hits; active = well fitted curve in the direction sought with a large enough effect; inconclusive = small, poorly fitted or top-dose-only effect, or another doubt; inactive = no such curve, though single readings can be large; an effect the other way counts as inactive or inconclusive;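 note: plate controls were neutral wells for no effect and buffer without enzyme for full effect; nearly all actives have a fitted effect of over 40% in size; top concentration of the series not given in the record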
#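 Cruzain (1.5 nM) preincubated 15 min at RT with compound in 100 mM sodium acetate pH 5.5, 5 mM DTT, 0.01% Triton X-100. Reaction started with 2 uM Z-FR-AMC; AMC fluorescence (ex 360/em 450 nm) change over 60 s gave rate.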
# Starred values were filed as active, the others as inactive; u = inconclusive; x = no result given; & = joins results of further samples; [ ] = another dose, or the depositor's remark. Unless noted, calls come from the whole dose curve; as a rule, active means well fitted rising curve with a large enough effect; inconclusive means small, poorly fitted or top-dose-only effect; inactive means no such curve, though single readings can be large or run the other way. Potency is the fitted concentration of half-maximal effect.
structure | StopGo reporter | Marburg entry inh | NS1 inh | SARS PLpro yeast | Cruzain inh noDet | RE007 growth inh | LASV entry inh | Cruzain inh Det
COc1ccccc1CNC(=O)C1CCC(=O)N1C(C)C (stereo unspecified) | 1% | 2%[46.1 µM] | 4% | 1% | x | -10% | 22%[46.1 µM] | x
COc1cc(SC)ccc1C(=O)OCC(=O)NCCC1=CCCCC1 | -9% | 16% | x | -1% | x | -10% | u | x
CCOc1c2ccc(C(=O)NCCCCc3ccccc3)cc2nn1CC | -14% | x | -8% | 20% | 6% | 1% | x | -0.2%
O=C(CCS(=O)(=O)c1ccccc1)Nc1nc2cc3c(cc2s1)OCCO3 | 34%[activator] | x | 2% | 2% | x | 8% | x | x
CC(=O)c1ccc(S(=O)(=O)Nc2cccc(-c3ccc(N4CCOCC4)nn3)c2)cc1 | 38%[activator] | 0% | x | 7% | x | 16% | -1% | x
COCCOC(=O)c1c(NC(=O)CN2CCc3ccccc32)sc(C(N)=O)c1C | -18% | x | 9% | 0% | x | -7% | x | x
CC1CCN(S(=O)(=O)c2nnc(NC(=O)c3cccc([N+](=O)[O-])c3)s2)CC1 | -12% | x | 16% | 0% | x | -5% | x | x
CN1CCN(CCc2cn3ncc(C#N)c3nc2-c2ccc(F)cc2)CC1 | 0% | 7%[46.1 µM] | 1% | 0% | x | -1% | 4% | x
CCOc1cc(N2CCOCC2)c(OCC)cc1NC(=O)c1cccc(S(=O)(=O)N2CCOCC2)c1 | -18% | -5% | x | -1% | x | -11% | 5% | x
Cc1ccc(N(CC(N)=O)C2SC(=O)NC2=O)cc1 (stereo unspecified) | -14% | 19% | u | u | 1% | 16% | 1% | -1.4%
O=C(NNC(=O)NC1CCCCC1)NC1CCCCC1 | 9% | u | 25% | 1% | x | 2% | -5% | x
COc1nc(N(C)C)nc(N(C#N)CCOC(C)=O)n1 | -5% | x | -2% | -1% | x | -5% | x | x
c1ccc(CSc2nnc3c4ccccc4c4ccccc4c3n2)cc1 | x | x | -3%&-1% | 2% | -3% | x | x | 1.7%
Cc1cccc(OCC(=O)N/N=C/c2cn[nH]c2-c2ccc(Cl)c(Cl)c2)c1 | u | u | 17% | -13% | -3% | -10% | u | -4.3%
c1coc(C2=Nc3cccc4cccc(c34)N2)c1 | 2% | 16%[46.1 µM] | 1% | 1% | x | 15% | 19%[46.1 µM] | x
CCCn1c(SCC(=O)Nc2ccccc2CC)nnc1C(C)C | 0% | 0% | 7% | 2% | -1% | -16% | 1% | -4.3%
CCN1CCN(c2c(/C=C3\SC(=S)N(Cc4ccco4)C3=O)c(C)c(C#N)c(=O)n2C)CC1 | -17% | 13µM* | 12% | 1% | x | 1% | u | x
Cc1cccc2cc(C#N)c(N3CCOCC3)nc12 | -16% | x | -15% | 0% | x | -8% | x | x
CCCCCCn1nc(C(=O)Nc2nc3c(s2)CCCC3)c2ccccc2c1=O | -14% | u | -2% | u | -13% | 0% | u | -5.1%
CCCCSc1nnc([C@H](CC(C)C)NC(=O)OC(C)(C)C)o1 | -20% | u | -31% | -15% | 5% | 10% | -27% | -9.6%
Cc1ccc(CN2CCN(c3ccccc3)CC2)o1 | -11% | u | -8% | 2% | x | -21% | -3%[46.1 µM] | x
CC(C)(C)NC(=O)Cn1nnc(-c2ccc(OCc3c(F)cccc3Cl)cc2)n1 | -9% | u | 5% | 5% | x | -19% | 10%[46.1 µM] | x
CCOC(=O)C1CCCN(c2ccc(NC(=O)c3snc4c(=O)[nH]cnc34)cc2)C1 (stereo unspecified) | -18% | u | 6% | -2% | 3% | -11% | -5% | 3.2%
Cc1cccc(OC(=O)c2cc(-c3ccc4c(c3)OCCO4)on2)c1C | -13% | 22%[46.1 µM] | x | x | -6% | x | 14%[46.1 µM] | -4.9%
COc1nnc(-c2ccc(C(=O)N3C[C@@H]4C[C@H](C3)c3cccc(=O)n3C4)cc2)c2ccccc12 | -3% | u | -4% | 0% | -9% | 5% | 5% | -0.2%

# Arranged by molar mass (lowest first): part of the list above.
structure | StopGo reporter | Marburg entry inh | NS1 inh | SARS PLpro yeast | Cruzain inh noDet | RE007 growth inh | LASV entry inh | Cruzain inh Det
COc1ccccc1CNC(=O)C1CCC(=O)N1C(C)C (stereo unspecified) | 1% | 2%[46.1 µM] | 4% | 1% | x | -10% | 22%[46.1 µM] | x
CCCCSc1nnc([C@H](CC(C)C)NC(=O)OC(C)(C)C)o1 | -20% | u | -31% | -15% | 5% | 10% | -27% | -9.6%
CCCn1c(SCC(=O)Nc2ccccc2CC)nnc1C(C)C | 0% | 0% | 7% | 2% | -1% | -16% | 1% | -4.3%

# Other records:
structure | StopGo reporter | Marburg entry inh | NS1 inh | SARS PLpro yeast | Cruzain inh noDet | RE007 growth inh | LASV entry inh | Cruzain inh Det
CS(=O)(=O)N(CC(=O)NC1CC1)C1CCCCC1 | -15% | -23% | 12% | 2% | -3% | -12% | 4% | 2.0%
COc1ccc(NC(=O)CCCn2c(=S)[nH]c3ccccc3c2=O)cc1 | -7% | x | 21% | 5% | u | -4% | x | 1.7%
COc1ccc(NC(=O)CSc2n[nH]c(CNc3cccc(C)c3)n2)cc1 | 0% | u | -6% | -4% | x | 15% | 2% | x
O=C(CCC1N=C2c3ccccc3N=C(SCc3ccccc3F)N2C1=O)NC1CCCCC1 (stereo unspecified) | -22% | x | x | x | -7% | x | 27%[46.1 µM] | 1.4%
CCN(CC)CCN1C(=O)C2C(C(=O)Nc3cc(C)cc(C)c3)C3C=CC2(O3)C1C(=O)NC1CCCCC1 (stereo unspecified) | -1% | -12%[46.1 µM] | -6% | 0% | x | 7% | x | x
CCC(Sc1ncccc1C(=O)O)C(=O)N1CCOCC1 (stereo unspecified) | -15% | 12% | 4% | -2% | -1% | -7% | u | -0.2%
CC1CCN(CCn2c(=S)[nH]c3ccccc3c2=O)CC1 | -7% | -19%[46.1 µM] | 3% | 22% | x | 3% | 0%[46.1 µM] | x
COc1ccc(Cl)cc1S(=O)(=O)N1CCN(C(=O)COc2ccccc2)CC1 | -15% | -7% | -15% | -1% | u | 1% | -23% | 1.8%
O=C(O)Cc1ccccc1C(=O)O | 6% | 5% | 7% | 6% | 3% | 26% | u | 1.8%
C#CCSc1nc2sc3c(c2c(=O)n1C)CCC3 | -25% | x | 3% | 1% | x | -9% | x | x
CCN(CC)CCNc1nc(C(F)(F)F)nc2c1nnn2Cc1ccccc1 | -14% | u | 10% | 0% | x | -1% | -22%[46.1 µM] | x
CC(C)Sc1oc(-c2ccco2)nc1S(=O)(=O)c1ccc(F)cc1 | 8% | u | -12% | -5% | -11% | -20% | 1% | -15%
CCOC(=O)c1c(C)[nH]c(C)c1C(=O)COC(=O)c1ccc(Cl)c(S(=O)(=O)NCc2ccccc2)c1 | u | -16%[46.1 µM] | 9% | 8% | 4% | -7% | -27% | 0.1%
O=C1CCCC(O)=C1N=Nc1ccc(S(=O)(=O)N2CCOCC2)cc1 | 6% | x | 8% | 2% | x | -6% | x | x
CCc1ccc(NC(=O)CCc2nnc3ccc(N4CCCC4)nn23)cc1 | -5% | x | 18% | 6% | x | -5% | x | x
CN(C)c1ncnc2c1ncn2CCn1cnc2c(N(C)C)ncnc21 | -1% | 8%[46.1 µM] | -8% | x | 1% | -1% | 5%[46.1 µM] | -2.5%
COc1ccc2[nH]c(O)c(N=O)c2c1 | -12% | 15% | -5% | u | 5% | 2% | -4% | -3.9%
COC(=O)c1ccc(/C=C/c2c(-c3ccsc3)oc3ccc(N4CCOCC4)cc23)cc1 | -3% | x | 22% | 4% | x | -4% | x | x
CC(=O)Nc1ccc(S(=O)(=O)Nc2nc3ccc([N+](=O)[O-])cc3s2)cc1 | 31%[activator] | 6%[46.1 µM] | x | 0% | x | -7% | -23% | x
COc1cc(/C=C/C(=O)OCC(=O)Nc2ccc(C)c(S(=O)(=O)N3CCCCC3)c2)ccc1O | u | u | u | -4% | -24% | 6% | -15% | -5.3%
O=C(c1ccc(Cn2cc([N+](=O)[O-])cn2)o1)N1CCCCCC1 | -25% | x | u | 7% | x | 9% | x | x
CCOC(=O)c1c2n(c3c(NCc4ccccc4)ncnc13)CCCC2 | -21% | u | -11% | 2% | 1% | -7% | -28% | -4.4%
CCCOc1ccc(C(=O)NNC(=S)NC(=O)CC)cc1 | -11% | u | -169% | -6% | -1% | -23% | 15µM* | 1.3%
COc1cc(NS(=O)(=O)c2ccc(NC(=O)COc3cccc(C)c3)cc2)nc(OC)n1 | 21% | 5%[46.1 µM] | u | 2% | x | 7% | 2% | x
COc1ccccc1Nc1cc(N2CCOCC2)c2nonc2c1[N+](=O)[O-] | -22% | 6% | x | -1% | x | -1% | 23% | x
Cc1coc(C)c1C(=O)Nc1ccc2ccccc2c1 | 25% | x | -18% | -12% | x | -5% | x | x
CCN1c2ccccc2-c2nc(SCC(=O)Nc3c(C)cc(C)cc3C)ncc2S1(=O)=O | 8% | x | x | x | -8% | x | -22%[46.1 µM] | 2.6%

# Complete entries as entered above.
# Results for CCN(CC)CCN1C(=O)C2C(C(=O)Nc3cc(C)cc(C)c3)C3C=CC2(O3)C1C(=O)NC1CCCCC1 (stereo unspecified) : StopGo reporter: -1%; Marburg entry inh: -12%[46.1 µM]; NS1 inh: -6%; SARS PLpro yeast: 0%; Cruzain inh noDet: x; RE007 growth inh: 7%; LASV entry inh: x; Cruzain inh Det: x
# Results for CS(=O)(=O)N(CC(=O)NC1CC1)C1CCCCC1 : StopGo reporter: -15%; Marburg entry inh: -23%; NS1 inh: 12%; SARS PLpro yeast: 2%; Cruzain inh noDet: -3%; RE007 growth inh: -12%; LASV entry inh: 4%; Cruzain inh Det: 2.0%
